# Source: PubChem
# TRPML1 inh – qHTS for Inhibitors of the Human Mucolipin Transient Receptor Potential 1 (TRPML1) | TRPML1-inducible cells, Ca2+ dye fluorescence, FDSS; active compounds read low; inhibition of EC80 agonist-evoked calcium signal | activity change, negative = inhibition, % (test concentration not listed) | actives 0.02% (n = 390,000) | AID 624415, 2012; in the data active means activity change below about -50%; inconclusive means about -30% to -50%; inactive means above about -30%;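 further: stimulus is agonist 54-4 at its EC80 concentration; on the % scale 0 is the no-effect control and ±100 the full control effect; compound concentration not given in the record; the text of the record puts the active cut at -80%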
# Target sequence (Q9GZU1 whole entry, looked up): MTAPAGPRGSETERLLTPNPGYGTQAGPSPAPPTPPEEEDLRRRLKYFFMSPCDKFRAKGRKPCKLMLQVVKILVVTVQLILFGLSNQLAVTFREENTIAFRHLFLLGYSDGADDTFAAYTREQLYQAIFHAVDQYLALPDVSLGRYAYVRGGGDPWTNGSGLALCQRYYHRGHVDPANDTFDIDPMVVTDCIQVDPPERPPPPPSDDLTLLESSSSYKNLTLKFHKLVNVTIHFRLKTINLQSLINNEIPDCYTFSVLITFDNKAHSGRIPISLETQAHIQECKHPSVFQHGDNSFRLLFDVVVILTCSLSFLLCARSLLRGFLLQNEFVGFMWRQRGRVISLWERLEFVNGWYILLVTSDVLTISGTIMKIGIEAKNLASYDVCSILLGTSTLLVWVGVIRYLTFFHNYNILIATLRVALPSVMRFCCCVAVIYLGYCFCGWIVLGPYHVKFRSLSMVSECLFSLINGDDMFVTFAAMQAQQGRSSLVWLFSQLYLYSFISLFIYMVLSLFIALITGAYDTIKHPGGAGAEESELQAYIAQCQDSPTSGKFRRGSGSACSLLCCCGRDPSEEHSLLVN
#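 Calcium fluorescence in TRPML1-DL cells induced overnight with Tet: a 110 s read after compound pin addition, then a 110 s antagonist read after challenge with 54-4 at 4 uM final (EC80).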
# ClpP mod – qHTS Assay for Activators of ClpP; ATP-dependent Clp protease proteolytic subunit (Bacillus subtilis (strain 168)), P80244; actives 1.9% (n = 340,000); purified B. subtilis ClpP, FRET peptide cleavage, 20 min; Potency, µM (series often up to 57.5 µM), without a hit: at the highest dose activity change, negative = active; active = well fitted falling curve with a large enough effect; inconclusive = small, poorly fitted or top-dose-only effect; inactive = no such curve, though single readings can be large or run the other way; further: potency means the concentration at half of the fitted maximal effect; the source files actives as falling curves though it sought activators and does not explain the sign; nearly all actives have a fitted effect of over 65% in size; many hits overshoot -100%
# Target sequence (P80244 whole entry, looked up): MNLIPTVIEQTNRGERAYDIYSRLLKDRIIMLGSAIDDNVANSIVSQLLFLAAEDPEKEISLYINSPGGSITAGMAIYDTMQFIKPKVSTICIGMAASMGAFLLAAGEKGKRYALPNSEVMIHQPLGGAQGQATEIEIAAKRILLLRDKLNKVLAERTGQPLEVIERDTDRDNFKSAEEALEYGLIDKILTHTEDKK
#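 Buffer: 100 mM Tris/HCl pH8, 100 mM KCl, 0.05% low protease BSA, 2.5% glycerol, 0.01% Tween-20. ClpP 10 microg/mL final; 20 min RT; delta FRET normalized to ADEP and DMSO controls.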
# An asterisk follows results filed as active; ? = inconclusive. This is a subset. The share of hits here may be higher or lower than overall.
entry	SMILES	TRPML1 inh	ClpP mod
1	Cc1ccc(S(=O)(=O)N2C[C@H]3[C@H]4C(=O)N(C)C(=O)[C@H]4CC(=O)[C@H]3[C@@H]2c2ccccc2F)cc1	0	1.3%
2	Cc1ccccc1NC(=O)CSc1nc2c(oc3ccccc32)c(=O)n1-c1ccccc1F	-11	-6.1%
3	COc1ccc(S(=O)(=O)Nc2cc3c(cc2N2CCOCC2)n(C)c(=O)n3C)cc1	2	0.2%
4	Cc1cccc(NC(=O)c2sc3nc4c(cc3c2N)CCCCCC4)c1C	13	42%
5	OCCN(CCO)c1ncnc2c1cnn2-c1ccc(F)cc1	11	-15%
6	COc1ccc(Cn2c(CO)cnc2SCc2ccccc2)cc1	-22	-0.1%
7	CC(C)(C)OC(=O)N1CCN(C(=O)c2[nH]c(C(F)(F)F)nc2-c2ccccc2)CC1	-4	-0.4%
8	CCOCCCN1C(=O)CN(C2CCCCCC2)C(=O)C1c1ccc(OCC)c(OC)c1 (stereo not drawn)	-9	-2.5%
9	C#Cc1ccc(NC(=O)C2(C)CCN2C(=O)c2cc(C)n(C)n2)cc1 (stereo not drawn)	6	-1.6%
10	Cc1nc(SCc2ccc(Cl)cc2)c(C#N)c(C)c1Cl	-6	-2.1%
11	COCCNC(=O)CSc1nc(-c2ccc(F)cc2)[nH]c1-c1ccc(Cl)cc1	10	-16%
12	COc1ccc(OC)c(NC(=O)C2=C(C)C(=O)OC23CCN(C(C)C)CC3)c1	-4	-0.5%
13	COc1ccc(C(=O)Nc2ccc3nc4c(c(Nc5ccc(OC)c(OC)c5)c3c2)CCCC4)c(OC)c1	-8	-2.4%
14	O=C(NCc1cc(Cl)cc(Cl)c1)c1csc(COCCO)n1	4	-0.4%
15	O=S(=O)(c1ccc(-n2cnnn2)cc1)N1CCN(c2cccc(Cl)c2)CC1	-5	-2.0%
16	COc1ccc(N2CCN(C(=O)c3cccn4c(=O)c5ccc(Cl)cc5nc34)CC2)cc1	12	-2.5%
17	Cc1cccc(C(c2sc3nc(-c4ccco4)nn3c2O)N2CCOCC2)c1 (stereo not drawn)	-3	1.5%
18	COc1cccc(CNC(=O)C2CCCN(S(=O)(=O)N(C)c3ccc(F)cc3)C2)c1OC (stereo not drawn)	32	-2.0%
19	CC(=O)c1ccc(NC(=O)COc2ccccc2-c2nc(-c3ccccc3)no2)cc1	-9	-0.4%
20	Cc1ccc(-c2nsc(NC(=O)c3oc4cc(C)c(Cl)cc4c3C)n2)cc1	3	1.9%
21	CCN(CC)C(=O)c1ccc2c(c1)N(Cc1c(F)cccc1Cl)C(=O)c1ccccc1S2	59	0.9%
22	O=C(Nc1noc2ccccc12)c1cccc(Cl)c1Cl	17	2.0%
23	c1ccc(CNc2nc3ccccc3c3nc(-c4ccccc4)nn23)cc1	8	25µM*
24	Cc1ccc(Cn2cc(S(=O)(=O)c3cccc(C)c3)c(=O)c3cc(F)c(N4CCOCC4)cc32)cc1	-13	4.6%
25	COc1ccc(C(=O)c2cn(Cc3ccc(F)cc3)c3ccc(C)cc3c2=O)cc1	6	-2.9%
26	CC(=O)Nc1ccc2nc(SCc3ccccc3)sc2c1	21	-6.0%
27	O=C(Nc1ccc2oc(-c3cccc4c(Br)cccc34)nc2c1)c1cccc(Cl)c1	5	1.9%
28	CC1=C(C(=O)N2CCCCCC2)CC(CC(=O)NCc2cccs2)C(=O)N1Cc1ccccc1 (stereo not drawn)	-11	1.4%
29	CCc1cccc(NC(=O)CN(C)S(=O)(=O)c2ccc3[nH]c4c(c3c2)CCCC4)c1	-8	?
30	COc1ccc(CCNC(=O)c2ccc3c(c2)N(Cc2ccccc2C)C(=O)c2ccccc2S3)cc1OC	25	-1.4%
31	COc1cc(C(CC(=O)Nc2ccc(F)cc2F)N2Cc3ccccc3C2=O)cc(OC)c1OC (stereo not drawn)	21	-1.0%
32	COc1cc2c(cc1OC)C(COc1ccc3c(C)cc(=O)oc3c1)N(C(=O)Cc1ccccc1)CC2 (stereo not drawn)	-7	-0.6%
33	CCCS(=O)(=O)NC(=O)C1(C)CCN(C(=O)c2ccc(C(=O)OC)cc2)C1 (stereo not drawn)	40	1.4%
34	O=C(NC1CC(=O)N(c2cccc(F)c2)C1)c1ccc(Br)o1 (stereo not drawn)	-15	0.8%
35	Cc1ccccc1CCNC(=O)C1CCN(S(=O)(=O)c2ccc3c(ccn3C)c2)CC1	18	-30%
36	CC1=C(c2ccc(Cl)cc2)S(=O)(=O)N=C1N1CCC(C(=O)NCCc2ccco2)CC1	10	1.3%
37	COc1ccccc1NC(=O)N(Cc1ccco1)C1CCN(C(C)=O)CC1	-8	-0.5%
38	COc1ccc(-n2cc(-c3ccccc3)c3c(N4CCCC(C)C4)ncnc32)cc1 (stereo not drawn)	-23	-14%
39	Cc1ccc(Nc2nc(-c3ccccc3)nc3ccccc23)cc1	45	?
40	CCN1CCC(N(Cc2ccc3c(c2)OCO3)C(=O)Nc2ccc(Br)c(C)c2)CC1	7	-0.1%

# 3 structures already listed, arranged by molecular weight, rising.
entry	SMILES	TRPML1 inh	ClpP mod
39	Cc1ccc(Nc2nc(-c3ccccc3)nc3ccccc23)cc1	45	?
37	COc1ccccc1NC(=O)N(Cc1ccco1)C1CCN(C(C)=O)CC1	-8	-0.5%
32	COc1cc2c(cc1OC)C(COc1ccc3c(C)cc(=O)oc3c1)N(C(=O)Cc1ccccc1)CC2 (stereo not drawn)	-7	-0.6%

# Further compounds:
entry	SMILES	TRPML1 inh	ClpP mod
41	CCOC(=O)c1ccccc1NC(=O)CSc1cn(CC(=O)N2CCCCC2)c2ccccc12	-18	0.4%
42	COc1ccc(NC(=O)Cn2cnc3c(oc4ccccc43)c2=O)cc1OC	-11	1.2%
43	CCC(=O)N1CCc2cc(Br)cc(S(=O)(=O)N3CCCC(C(=O)NCc4ccc(F)cc4)C3)c21 (stereo not drawn)	-11	-1.7%
44	CCOc1ccc(C2C(=O)N(C3CCCCCC3)CC(=O)N2CCC2=CCCCC2)cc1OC (stereo not drawn)	-19	-0.2%
45	CC1CCCN(c2cc3c(cc2F)c(=O)c(S(=O)(=O)c2cccc(Cl)c2)cn3Cc2ccccc2)C1 (stereo not drawn)	-18	-8.3%
46	COc1ccc(-n2nc3ccc(NC(=O)c4ccc(-c5cc(Cl)ccc5Cl)o4)cc3n2)cc1	6	3.3%
47	Cc1ccc(CNS(=O)(=O)c2c(C)nc3sc(C)cn3c2=O)cc1	-11	28µM*
48	CCCSc1oc(-c2ccco2)nc1S(=O)(=O)c1ccc(Br)cc1	19	-16%
49	COc1cccc(C(=O)Nc2cccc(-c3nc4ncccn4c3C)c2)c1	-9	-26%
50	COc1ccc(OC)c(NC(=O)CCCc2nnc3n(C(C)C)c(=O)c4sccc4n23)c1	19	-7.2%
51	COc1cccc([C@H]2Nc3ccc(S(=O)(=O)Nc4cc(C)ccc4C)cc3[C@H]3C=CC[C@H]32)c1	16	1.2%
52	COC(=O)c1c(SC)nc2ccccc2c1OCc1cc(C)ccc1C	30	-0.9%
53	Cc1ccc(-c2nc3n(n2)C(=O)CC(c2ccc(C)cc2)S3)cc1 (stereo not drawn)	-4	2.7%
54	CCc1cccc(C)c1NC(=O)c1cc(S(=O)(=O)N(C)Cc2ccccc2)ccc1F	46	-3.6%
55	COc1ccc(-n2c(=O)c3sc4ccccc4c3n(CC(=O)NC3CCCCC3)c2=O)cc1	1	?
56	CSc1ncc(C(=O)Nc2cc(Cl)ccc2C)c(-c2ccccc2)n1	-1	-2.5%
57	CCc1nn(CC(=O)N2CCN(c3cccc(Cl)c3)CC2)c(=O)c2cc3sccc3n12	9	0.6%
58	O=C(NCc1ccc(Cl)cc1)C(=O)NCC(c1cccnc1)N1CCN(c2ccccc2)CC1 (stereo not drawn)	18	-2.8%
59	COc1ccc(-c2cn(-c3ccc(C)cc3)c(S(=O)(=O)CC(=O)Nc3ccc(F)cc3)n2)cc1	32	-1.8%
60	O=C(Nc1ccc(F)c(Cl)c1)C1CCCN(c2ncnc3onc(-c4ccc(F)cc4)c23)C1 (stereo not drawn)	19	-22%
61	COc1ccc(CNC(=O)Cn2c(=O)nc(-c3ccccc3)c3ccccc32)cc1OC	1	-13%
62	Cc1ccc(Cc2c(-c3ccc(Br)cc3)nc3ccc(Cl)cn23)cc1	35	-12%
63	CCC12CN3CC(C)(CN(C1)C3c1c[nH]c3ccc(OC)cc13)C2=O (stereo not drawn)	-1	-0.2%
64	COc1ccc(S(=O)(=O)c2c(Nc3c(C)cccc3C)sc(C(=O)c3ccc4c(c3)OCO4)c2N)cc1	-6	-23%
65	Cc1nnc2c3ccccc3nc(N3CCN(c4cccc(Cl)c4)CC3)n12	26	-4.8%
66	Cc1cc2c(cc1S(=O)(=O)CCC(=O)Nc1ccc(OC(F)(F)F)cc1)OCC(=O)N2	2	0.2%
67	COc1ccc(CNC(=O)c2cc3cc(C)ccc3n2C)cc1	-10	?
68	Cc1ccc(Cl)cc1N1CCN(C(=O)CCS(=O)(=O)c2cc(Br)cc3c2N(C(=O)C2CC2)CC3)CC1	4	0.8%
69	CCc1cc2c(cc(C(=O)OC)n2Cc2nc(-c3ccc(C)cc3)oc2C)s1	57	-0.7%
70	CCOC(=O)C1CCCN(S(=O)(=O)c2ccc3c(c2)CCN3C(=O)CC)C1 (stereo not drawn)	-5	0.3%
71	Cc1ccc2nc3c(cc(C(=O)NC4CCCCC4)c(=N)n3C(C)C)c(=O)n2c1	2	4.1%
72	CCc1ccc(CN2CCc3nc(N4CCN(c5ccccc5F)CC4)ncc3C2)cc1	-9	0.8%
73	Cc1ccc(C(=O)c2oc3ccccc3c2NC(=O)COc2ccccc2Cl)cc1	-7	-1.2%
74	CCc1ccc(NS(=O)(=O)c2cc(-c3cnc(C4CC4)o3)ccc2C)cc1	32	-1.8%
75	Cc1ccc(-c2nc3cc(Cl)ccc3o2)cc1NC(=O)COc1ccc(F)cc1	-16	-2.0%
76	CCc1ccc(-c2cn3c(n2)sc2cc(C(=O)NC4CCCCC4)ccc23)cc1	-2	-6.4%
77	CCc1ccc(NS(=O)(=O)c2ccc3oc(=O)c4ncn(CC)c4c3c2)cc1	7	-1.8%
78	CCCCOC(=O)Cn1nnc2sc(-c3ccccc3)cc2c1=O	29	-16%
79	CCc1ccc(CN(Cc2ccco2)c2cnc(S(C)(=O)=O)nc2C(=O)Nc2c(C)cccc2C)cc1	4	-14%
80	CCc1nn(CC(=O)NC2CC2)c(=O)c2cc3ccccc3n12	-13	?
81	CCN(CC)S(=O)(=O)c1cccc(C(=O)Nc2ccccc2C(=O)Nc2ccc(OC)cc2)c1	15	-3.7%
82	CNC(=O)CN1C(=O)COc2ccc(S(=O)(=O)N3CCC(C)CC3)cc21	8	-2.3%
83	Cn1c(=O)c2c(n3c4ccccc4nc13)NC(=O)CC2c1ccccc1F (stereo not drawn)	-6	4.2%
84	CC(C)Oc1ccc(C(=O)Nc2nnc3n2CCS3)cc1	0	1.2%
85	Cc1cc(C)c2c(CC(=O)Nc3ccc(S(=O)(=O)Nc4ncccn4)cc3)coc2c1	3	-0.3%
86	COc1ccc(CN(C(=O)Nc2ccc(C)c(F)c2)C2CCN(C(C)=O)CC2)cc1	-6	2.0%
87	CCOc1ccc2c(c1)sc1nc(=O)n(-c3ccc(Cl)c(Cl)c3)c(=O)n12	-13	0.1%
88	COc1ccc(C)c2sc(NC(=O)c3ccc(S(=O)(=O)N4CCCC4)cc3)nc12	-4	0.7%
89	Cc1ccc2onc(CNC(=O)Nc3cc(F)ccc3F)c2c1	-9	-1.1%
90	Cc1ccccc1OCC(=O)Nc1ccccc1OCc1cc(=O)n2ccccc2n1	13	-25%
91	CC(NC(=O)C1CCN(C(=O)c2ccc(-n3ccc4ccccc43)s2)CC1)c1ccccc1 (stereo not drawn)	-17	?
92	COc1ccccc1CNC(=O)c1ccc2c(c1)N(Cc1cccc(Cl)c1)C(=O)c1ccccc1S2(=O)=O	22	-9.0%
93	Cc1ccc(NC(=O)C2CCCN(c3nnc(-n4c(C)ccc4C)s3)C2)c(C)c1 (stereo not drawn)	89	0.5%
94	COc1ccc(CNC(=O)Cn2ccc3cc(S(=O)(=O)N4CCCCCC4)ccc32)cc1OC	2	-22%
95	O=C(Nc1cccc(C(F)(F)F)c1)Nc1nnc(N2CCCCCC2)s1	-7	-2.3%
96	Cc1ccc(NC(=O)[C@@H](c2ccccc2)N2Cc3ccccc3C2=O)cc1	-3	-0.3%
97	CC(C)(C)OC(=O)N1CCC(c2c(C(=O)N3CCN(C4CCCCC4)CC3)cnn2-c2cccc(Cl)c2)CC1	-23	-0.7%
98	COc1cccc(OCc2nc3ccccc3n2CCOc2ccccc2)c1	61	-0.9%

# Grouped by structure, the entries above with two or more sulfur atoms.
entry	SMILES	TRPML1 inh	ClpP mod
26	CC(=O)Nc1ccc2nc(SCc3ccccc3)sc2c1	21	-6.0%
47	Cc1ccc(CNS(=O)(=O)c2c(C)nc3sc(C)cn3c2=O)cc1	-11	28µM*
48	CCCSc1oc(-c2ccco2)nc1S(=O)(=O)c1ccc(Br)cc1	19	-16%
64	COc1ccc(S(=O)(=O)c2c(Nc3c(C)cccc3C)sc(C(=O)c3ccc4c(c3)OCO4)c2N)cc1	-6	-23%
88	COc1ccc(C)c2sc(NC(=O)c3ccc(S(=O)(=O)N4CCCC4)cc3)nc12	-4	0.7%
